UCH37 DUB inh – inhibitors of human UCH37 deubiquitinase, primary screen, biochemical, Ub-AMC cleavage, fluorescence; Ubiquitin carboxyl-terminal hydrolase isozyme L5 (Homo sapiens), Q9Y5K5; purified proteasome/UCH37; inhibition, % (test concentration not listed); hit rate 0.33% among 330,000; AID 588478, 2011;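 active = mean of two replicates above 20%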;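 also: 0% = compound-free wells with enzyme and 100% = wells lacking proteasome; stock transfer was 100 nL into about 20 µL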
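Assay system: Proteasome-bound UCH37. Buffer or medium: pH 7.4 Tris-HCl (50 mM) with ovalbumin, ATP-MgCl2, DTT. Incubation: 30 min preincubation with enzyme, 25 min cleavage at room temperature. Measured by: fluorescence, ex 355 nm, em 460 nm. Read-out basis: percent inhibition. Control set: wells without proteasome as full block, compound-free enzyme plus substrate as uninhibited.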
LANA-H2B inh – blockers of LANA interaction with H2A/H2B – biochemical, FP readout, HTS, primary screen. Protein LANA1 (Human herpesvirus 8 type P (isolate GK18)), Q9QR71. cell-free LANA-H2A/H2B peptide, fluorescence polarization. inhibition, % (concentration not given with the values). hit rate 0.6% among 320,000. AID 2629, 2010; in the data active = inhibition mostly above about 10%, no sharp cut-off; inactive = mostly below about 6.7%;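 also: stock transfer was 7.5 nL into about 10 µL; 0% = median of vehicle wells and 100% = median of positive control wells; one replicate is shown; the record names a cut of 25% in any replicate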
Target sequence (Q9QR71 whole entry, looked up): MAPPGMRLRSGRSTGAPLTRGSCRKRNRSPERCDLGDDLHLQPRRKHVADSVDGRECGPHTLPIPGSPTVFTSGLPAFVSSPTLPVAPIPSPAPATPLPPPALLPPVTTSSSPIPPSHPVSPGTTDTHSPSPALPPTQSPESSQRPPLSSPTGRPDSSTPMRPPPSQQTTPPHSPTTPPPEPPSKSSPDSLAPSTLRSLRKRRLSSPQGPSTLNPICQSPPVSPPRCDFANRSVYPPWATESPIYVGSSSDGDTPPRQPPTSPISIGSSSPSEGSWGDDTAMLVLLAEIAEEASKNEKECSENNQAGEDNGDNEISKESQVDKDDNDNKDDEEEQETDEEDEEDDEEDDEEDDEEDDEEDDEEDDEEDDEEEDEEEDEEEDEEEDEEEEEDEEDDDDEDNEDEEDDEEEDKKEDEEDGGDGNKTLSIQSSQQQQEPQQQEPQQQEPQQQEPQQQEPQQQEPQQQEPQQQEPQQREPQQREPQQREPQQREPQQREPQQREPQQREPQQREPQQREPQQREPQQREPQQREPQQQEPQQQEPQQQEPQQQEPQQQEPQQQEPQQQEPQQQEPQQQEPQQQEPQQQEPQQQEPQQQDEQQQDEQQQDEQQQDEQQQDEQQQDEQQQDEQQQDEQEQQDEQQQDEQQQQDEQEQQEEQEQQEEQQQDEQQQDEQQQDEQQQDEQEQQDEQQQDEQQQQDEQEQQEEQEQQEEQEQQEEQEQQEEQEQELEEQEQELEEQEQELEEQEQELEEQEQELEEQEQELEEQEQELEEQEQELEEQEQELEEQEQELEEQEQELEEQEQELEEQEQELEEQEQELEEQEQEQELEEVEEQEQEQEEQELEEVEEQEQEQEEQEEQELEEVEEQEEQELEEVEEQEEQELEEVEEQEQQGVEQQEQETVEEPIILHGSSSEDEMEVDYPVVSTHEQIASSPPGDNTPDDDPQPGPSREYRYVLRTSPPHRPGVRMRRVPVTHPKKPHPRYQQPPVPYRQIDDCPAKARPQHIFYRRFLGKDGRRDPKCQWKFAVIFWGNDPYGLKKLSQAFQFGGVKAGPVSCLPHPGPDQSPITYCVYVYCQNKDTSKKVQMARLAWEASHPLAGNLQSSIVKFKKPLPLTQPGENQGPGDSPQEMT
Beta2AR agonist – beta2AR agonists driving receptor internalization, primary screen, cell-based, FAP fluorogen, flow cytometry; response, % (no concentration beside the values); Am2.2-beta2AR cells; reference of the scale not given here; hit rate 0.43% among 340,000; Beta-2 adrenergic receptor (Homo sapiens), P07550;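 active = response above a set limit, near 3 SD of response in nonfluorescent compounds, cut at about 42% in these data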;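 also: stock transfer was 100 nL into about 11 µL; a reference agonist was the positive control; negative values mostly stem from fluorescent compounds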
E coli growth – E. coli growth inhibition, primary screen, OD600. Escherichia coli growth, 23 h; active compounds read low. AID 1053175, 2014. OD600 absorbance (concentration not given with the values). hit rate 0.21% among 330,000;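 active = OD600 absorbance below the run mean of sample wells minus 3.6 SD, in any replicate, cut at about 0.56 in these data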;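 also: stock transfer was 300 nL into about 60 µL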
HNF4A DNA FP – change in binding of human HNF4A to DNA, primary screen, biochemical, fluorescence polarization, FITC-DNA; activity change, % at 10 µM; 1 h; hit rate 0.3% among 360,000; AID 1224865, 2016; in the data active = activity change above about 30%, passing the limit was not always enough;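 also: controls were the assay level and a saturating level of protein; the project sought stronger binding though the title names inhibitors; some compounds called inactive have numbers as strong as hits; positive values seem to mean higher polarization but the record does not say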
Bfl-1 A1 inh – caspase 3/7 activation in MEF A1-2A-BIM cells, primary screen, A1 inhibitor project, cell-based, luminescence, HTS; caspase activation, % (test concentration not listed); Caspase-Glo 3/7 luminescence, 3 h; percent of clofoctol response, vehicle zero; AID 2462, 2010; hit rate 0.066% among 330,000;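 active = over half of replicate activation scores above 10%, or exactly half above 10 with the replicate mean above 10; inconclusive = replicate mean below 10 yet half the replicates above 10; inactive = over half of replicates below 10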;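 also: wells of about 30 µL received 50 nL stock; many hits fall short of the cut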
Vif A3G – inhibitors of Vif binding to APOBEC3G peptide, primary screen, biochemical, TR-FRET, GST-Vif 1-94, biotin-A3G peptide, dose response retest (AID 1117319) | TR-FRET GST-Vif / biotin-A3G peptide binding; higher % means a stronger effect; test concentration not given here; strong numbers were not always called active | inhibition, %, or IC50 in µM where a hit was titrated | hit rate 0.57% among 260,000;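 active = above the screen mean plus three standard deviations and confirmed in dose response; inconclusive = results disagree or hit not tested in dose response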;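 also: Vif residues 1-94 fused to GST binding biotinylated APOBEC3G peptide 110-148; 0% = full assay without inhibitor and 100% = GST in place of GST-Vif; retest series ran down from 100 µM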
The depositor's hits bear a star; u = inconclusive; x = no result given; & = joins results of further samples. Rows are unselected; about 2.1% have a hit in one of these screens.

SMILES	UCH37 DUB inh	LANA-H2B inh	Beta2AR agonist	E coli growth	HNF4A DNA FP	Bfl-1 A1 inh	Vif A3G
COc1cccc(NC(=O)Cc2nnc(SCC(=O)c3ccccc3)n2C)c1	0.5	x	2	0.78	0.2	x	u
O=C(NCc1cccc(C(F)(F)F)c1)C1CC(c2ccccc2C(F)(F)F)=NO1 (stereo not drawn)	0.6	-2.3	10	0.7	3.6	0.4	-11%
CCOc1ccc(Cl)cc1S(=O)(=O)NCc1cccnc1	1.4	1.0	-3	0.69	-2.6	0.0	20%
CC1Oc2cc3oc4c(O)c(O)ccc4c(=O)c3c(O)c2C1(C)C (stereo not drawn)	4.2	-0.6	8	0.59	-3.8	-0.5	x
CCCc1ccc(NC(=O)C2CCCN(c3cnccn3)C2)cc1 (stereo not drawn)	-39	x	-2	0.68	-1.7	x	x
COc1ccc(C(NC(=O)CN2C(=O)NC3(CCc4ccccc43)C2=O)c2ccc(OC)cc2)cc1 (stereo not drawn)	3.0	x	-2	0.69	0.4	x	-5%
CCOC(=O)c1ccc(NC(=O)c2nn(C)cc2Br)cc1	-1.3	3.0	18	0.73	-1.7	-0.1	-14%
O=C(Nc1nc(=O)n(C(=O)c2cccc(C(F)(F)F)c2)s1)c1ccccc1	-0.3	-0.3	6	0.71	-3.3	0.0	32%
COc1ccc(/C=C2\SC(=S)N(CC(=O)OCC(=O)Nc3ccc(C)cc3Cl)C2=O)cc1	x	-0.8	18	x	16	-0.4	-4%
COc1cccc(OCc2nnc(SCC(=O)NCc3ccco3)n2CCc2ccccc2)c1	0.3	5.5	-2	0.66	-1.8	-0.3	6%
Cc1ccc(CN(Cc2cc3cccc(C)c3[nH]c2=O)C(=S)NCCCN(C)C)cc1	-0.6	-0.4	15	0.69	0.6	0.4	7%
Cc1ccc(NC(=O)C2COc3ccccc3O2)cc1C (stereo not drawn)	1.9	-1.6	-1	0.6	-3.9	0.1	x
CC/C(=N\n1nnnc1Nc1ccccc1)c1ccccc1	x	-1.5	3	x	-4.9	-0.1	0%
CCC(=O)Nc1cc(C(=O)OC(C(=O)c2ccc(C)c(C)c2)c2ccccc2)ccc1C (stereo not drawn)	3.6	0.1	14	0.69	0.5	0.0	0%
O=C(O)c1cccc(NC(=S)NC(NC(=O)c2cccc([N+](=O)[O-])c2)C(Cl)(Cl)Cl)c1 (stereo not drawn)	0.1	1.2	6	0.67	-1.3	0.2	9%
C=CCN1C(=O)NC2(O)C(=O)c3ccccc3C12O (stereo not drawn)	4.8	-0.8	-3	0.65	2.2	0.3	-1%
CCCOc1ccc2c3c(c(=O)oc2c1OCCC)CCCC3	-4.2	5.1	-11	0.76	-0.2	-0.8	2%
Cc1ccnc(NS(=O)(=O)c2ccc(NC(=O)CCS(=O)(=O)c3ccccc3)cc2)n1	-2.5	4.0	4	0.68	3.6	-1.3	1%
CCOc1cc(-n2ncc(C#N)c2N)nc(SC)n1	-1.9	-0.4	6	0.74	1.6	0.2	x
Cc1ccc(S(=O)(=O)N(C)C)cc1NC(=O)c1cc(S(=O)(=O)N2CCCCC2)ccc1N1CCOCC1	0.5	x	-10	0.69	0.0	x	x
CC(=C/c1ccco1)/C=N/NC(=O)Cc1cccn1C	x	-5.4	-9	x	2.4	0.2	1.9µM*
Cn1c2ccccc2c(=O)c2ccc(C#Cc3ccccn3)cc21	-17	3.8	x	0.67	x	-0.4	x
CCOC(=O)c1ccc(N2C(=O)C(O)=C(C(C)=O)C2c2ccccn2)cc1 (stereo not drawn)	4.8	-8.0	-5	0.7	1.9	0.1	5%
COc1ccc(N(C(=O)/C=C/c2ccc(OC)c(OC)c2)C2=CC3CCC(C2)N3C)cc1 (stereo not drawn)	3.1	3.0	1	0.65	-0.8	0.2	-3%
S=c1[nH]nc(-c2ccccn2)n1/N=C/c1cccc2ccccc12	x	-0.9	5	x	1.5	-0.6	-1%

Two of the compounds above, as labelled records:
COc1ccc(C(NC(=O)CN2C(=O)NC3(CCc4ccccc43)C2=O)c2ccc(OC)cc2)cc1 (stereo not drawn)
  UCH37 DUB inh = 3.0 | LANA-H2B inh = x | Beta2AR agonist = -2 | E coli growth = 0.69 | HNF4A DNA FP = 0.4 | Bfl-1 A1 inh = x | Vif A3G = -5%
CCOC(=O)c1ccc(NC(=O)c2nn(C)cc2Br)cc1
  UCH37 DUB inh = -1.3 | LANA-H2B inh = 3.0 | Beta2AR agonist = 18 | E coli growth = 0.73 | HNF4A DNA FP = -1.7 | Bfl-1 A1 inh = -0.1 | Vif A3G = -14%

(cont.)
SMILES	UCH37 DUB inh	LANA-H2B inh	Beta2AR agonist	E coli growth	HNF4A DNA FP	Bfl-1 A1 inh	Vif A3G
COc1ccc(C2=CSC3=NCCN23)cc1	0.2	1.8	-5	0.68	-0.3	-0.8	-2%
CC(C)c1ccc(C(=O)Nc2cccnc2)cc1	0.9	0.3	22	0.63	-1.8	-8.0	x
Cn1c(=O)[nH]c(=O)c2c1nc(N1CCCCC1)n2CCSc1nc2ccccc2o1	6.1	2.1	-29	0.73	0.7	-0.3	-4%
CCOC(=O)C1=C(C)N(CC(C)C)C(=O)C1	3.7	2.0	-2	0.72	-2.5	0.9	-4%
COc1ccc(OCC(=O)NNC(=O)c2c(-c3ccccc3Cl)noc2C)cc1	2.0	2.5	3	0.62	-2.4	0.7	x
Cc1ccc(SCCCCN2C(=O)NC(C)(C)C2=O)cc1	5.2	-3.0	1	0.71	2.4	1.5	-4%
CCn1nc(C)c(NC(=O)CSc2nnc(-c3ccco3)n2C)c1C	0.9	-6.8	-9	0.68	-1.9	0.2	2%
CCOc1ccc(N(CC(=O)NCc2ccc(F)cc2)C(=O)c2snc(C(N)=O)c2N)cc1	-57	-1.3	-2	0.69	-0.9	1.2	x
CCCCn1c(SCc2nnc(-c3ccccc3)o2)nc2c1c(=O)n(C)c(=O)n2C	1.5	-1.3	1	0.61	1.1	-0.7	0%
CC(=O)c1ccccc1OCCOc1ccccc1C(C)=O	1.1	-7.7	-3	0.7	-0.4	-0.8	x
CC(OC(=O)CN1C(=O)NC2(CCCC2)C1=O)c1ccc(F)cc1 (stereo not drawn)	0.4	2.7	-5	0.67	0.7	1.0	16%
Cc1nc2ccc(C(=O)OCc3nnc(-c4ccccc4)o3)cc2nc1C	6.2	x	0	0.67	2.2	x	x
O=C(Nc1ccc(Nc2ccccc2)cc1)c1ccc(Cl)cc1	7.0	-1.2	1	0.65	0.7	-0.2	x
COC(=O)Cn1nc(-c2ccccc2)n(-c2ccccc2)c1=S	-2.5	-0.5	11	0.7	-3.4	-0.8	6%
COc1cccc(CNC(=O)CCS(=O)(=O)c2ccc3c(c2)NC(=O)CO3)c1	0.9	2.1	0	0.69	-1.1	0.3	x
CC(C)NC(=O)c1n[nH]c(=O)c2ccccc12	-0.5	-0.4	7	0.71	-0.5	0.8	5%
O=C(Nc1ccc(-n2cccn2)cc1)C1CCN(Cc2ccccn2)CC1	5.3	-1.6	0	0.64	3.7	-1.1	-1%
CN1CCN(CCc2cn3ncc(C#N)c3nc2-c2ccc(F)cc2)CC1	-37	-0.4	-2	0.67	0.9	0.5	14%
COc1ccccc1CNC(=O)CSc1ccc(-c2ccncc2)nn1	2.6	4.6	-14	0.69	-2.8	-0.4	x
COc1ccccc1N=c1sc2ccccc2n1C	2.8	5.8	6	0.7	-0.5	-0.8	-2%
CN1CC(c2ccccc2)C2(SC(=S)N(Cc3ccco3)C2=O)C12C(=O)Nc1ccccc12 (stereo not drawn)	2.6	-0.1	21	0.7	2.5	0.1	-2%&0%
COc1ccc(NC(=O)CN(c2ccc(Cl)cc2)S(C)(=O)=O)cc1OC	6.4	3.2	4	0.68	6.3	1.1	-1%
CCOc1ccccc1NC(=O)Cc1cccs1	1.8	3.6	4	0.68	-4.2	0.4	x
COc1ccc(Cl)cc1NC(=S)NCc1ccccn1	3.7	0.1	3	0.7	0.6	0.7	x
CC1Sc2ccccc2N(CC(=O)N(C(C)C)C(C)C)C1=O (stereo not drawn)	0.5	2.4	35	0.71	-2.6	0.0	-4%

(more compounds)
SMILES	UCH37 DUB inh	LANA-H2B inh	Beta2AR agonist	E coli growth	HNF4A DNA FP	Bfl-1 A1 inh	Vif A3G
CN(c1ccccc1)S(=O)(=O)c1nnc(NC(=O)C2CCCCC2)s1	1.9	-2.3	5	0.67	4.4	-1.2	x
C/C(=N\NC(=O)COc1ccccc1F)c1cc2ccccc2o1	x	4.8	-8	x	-4.0	0.0	1%
COCc1nnc(NS(=O)(=O)c2ccc([N+](=O)[O-])cc2)s1	4.1	-3.0	-10	0.69	-2.7	-0.8	-1%
Cc1ccc(S(=O)(=O)Nc2cccc(C(=O)NCC(c3ccccc3)N(C)C)c2)cc1F (stereo not drawn)	-0.2	1.1	-1	0.64	-3.7	0.3	-3%
CNC(=O)COc1coc(CN2CCN(c3ccccc3F)CC2)cc1=O	2.8	0.6	-1	0.68	3.1	-1.0	x
Cc1cccc(-n2ncc3c(N4CCC5(CC4)OCCO5)ncnc32)c1	2.5	-2.9	2	0.74	2.2	-2.3	x
Cc1cc(C)cc(NC(=S)N2CCN(S(=O)(=O)c3ccccc3)CC2)c1	6.3	1.2	7	0.7	5.8	1.5	x
COc1cccc(C(=O)N2CCN(C(=O)C3COc4ccccc4O3)CC2)c1 (stereo not drawn)	-0.6	2.9	-5	0.69	-2.3	-0.1	x
COc1ccc(CCN(C)C(=O)C2CCN(Cc3cccc(OC)c3OC)CC2)cc1OC	3.1	2.6	-1	0.73	1.5	1.0	x
Cc1cc(Cl)ccc1C1=CC(=O)C[C@H](c2ccc(F)cc2)C1	0.8	-3.6	-11	x	0.1	-0.2	x
O=S(=O)(NCc1ccco1)N1CCCCCC1	3.9	2.6	1	0.68	0.2	-1.3	2%
COc1ccc(-c2csc(NC(=O)CSc3n[nH]c(N)n3)n2)cc1	4.5	-1.8	5	0.75	3.9	0.4	-5%
Cc1ccc(OC(=S)Nc2ccc(F)cc2)cc1	1.7	2.5	2	0.71	-0.9	1.3	8%
COc1cc(CN2CCC(n3nccc3NC(=O)c3ccc4c(c3)OCO4)CC2)ccc1O	0.5	47*	8	0.72	3.2	0.2	-10%
N#Cc1ccsc1NC(=O)CSc1nncs1	-0.4	6.8	4	0.71	-29	-13	x
N/C(=N/OC(=O)c1ccccc1Cl)c1nonc1N	x	-2.3	0	x	0.3	-11	24%
COCc1c(C(=O)N/N=C(/C)c2ccccc2)nnn1-c1nonc1N	x	2.8	-1	x	-4.7	u	3%
CCCC(O)(CCC)C(=O)NN(C(=O)CCl)c1cccc(C)c1	4.6	3.9	0	0.72	0.0	0.0	x
COc1ccc(CCNC(=O)/C=C/C(=O)O)cc1OC	3.7	1.3	1	0.64	3.3	0.5	4%
CC(C)(C)c1ccc(-c2noc(CCC(=O)NCc3ccco3)n2)cc1	2.2	-6.1	2	0.65	-2.1	-2.5	x
COc1cccc(-c2nc(CS(=O)(=O)CC(=O)NCCCc3ccccc3)c(C)o2)c1	0.6	-2.4	-2	0.69	0.2	0.3	x
Cc1cccc(NC(=S)N2CCCCCC2)c1	3.6	-1.5	3	0.72	-2.9	0.5	u
O=C(NC1CCCCC1)C(c1ccc(Cl)cc1)N1CCC2(CC1)OCCO2 (stereo not drawn)	-0.7	-3.3	1	0.71	-2.6	0.4	-5%
